ALR inh – inhibitors of human sulfhydryl oxidase ALR; purified ALR, DTT oxidation, H2O2 HRP-luminol luminescence; inhibition, % (concentration not given with the values); 290,000 compounds, 3.8% hits;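 active = mean and each replicate at 75% or more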;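 also: stock transfer was 7.5 nL into about 7.5 µL; 0% = neutral wells and 100% = wells with inactivated enzyme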
Target sequence (P55789 whole entry, looked up): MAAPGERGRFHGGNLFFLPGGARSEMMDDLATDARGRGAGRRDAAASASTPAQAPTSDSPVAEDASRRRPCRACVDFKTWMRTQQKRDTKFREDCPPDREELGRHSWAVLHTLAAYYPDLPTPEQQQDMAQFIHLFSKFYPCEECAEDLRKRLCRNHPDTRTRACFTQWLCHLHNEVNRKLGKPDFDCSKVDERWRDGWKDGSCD
LANA-H2A inh – blocks KSHV LANA binding to histone H2A/H2B. cell-free LANA-H2A/H2B peptide, fluorescence polarization. Q9QR71. AID 2629. 320,000 compounds, 0.6% hits. inhibition, % (concentration not given with the values); in the data active = inhibition mostly above about 10%, no sharp cut-off; inactive = mostly below about 6.7%;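 also: stock transfer was 7.5 nL into about 10 µL; 0% = median of vehicle wells and 100% = median of positive control wells; one replicate is shown; the record names a cut of 25% in any replicate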
Beta2AR agonist – activates human beta-2 adrenergic receptor causing internalization; P07550; Am2.2-beta2AR cells, FAP receptor internalization, flow cytometry; reference of the scale not given here; response, % (test concentration not listed); 340,000 compounds, 0.43% hits;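 active = response above a set limit, near 3 SD of response in nonfluorescent compounds, cut at about 42% in these data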;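 also: stock transfer was 100 nL into about 11 µL; a reference agonist was the positive control; negative values mostly stem from fluorescent compounds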
Target sequence (P07550 whole entry, looked up): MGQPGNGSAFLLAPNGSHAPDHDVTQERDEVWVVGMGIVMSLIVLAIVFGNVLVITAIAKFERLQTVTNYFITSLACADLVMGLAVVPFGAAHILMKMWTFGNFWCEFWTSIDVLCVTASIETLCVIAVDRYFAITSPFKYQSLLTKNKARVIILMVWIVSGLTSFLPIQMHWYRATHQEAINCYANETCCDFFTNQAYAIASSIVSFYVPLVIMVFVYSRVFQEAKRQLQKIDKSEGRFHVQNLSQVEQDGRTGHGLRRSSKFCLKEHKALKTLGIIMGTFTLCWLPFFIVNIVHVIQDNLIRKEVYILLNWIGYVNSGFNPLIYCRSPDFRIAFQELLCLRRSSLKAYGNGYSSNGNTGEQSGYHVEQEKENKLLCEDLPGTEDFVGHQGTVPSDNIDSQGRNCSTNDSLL
rRNA inh HTS – selective bacterial rRNA inhibition in E. coli; E. coli WT GFP vs humanized-ribosome RFP mutants, fluorescence, 24 h; hits give low values; DMSO median 0, no signal -100; GFP signal change (wild-type ribosome), % (test concentration not listed); 350,000 compounds, 1.6% hits; AID 720706;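 active = significant combined selectivity score with lowered wild-type GFP, culture density cut under 30%, mutant RFP and density less affected; inactive = any of these conditions unmet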; also: one replicate is shown; some compounds called inactive have numbers as strong as hits
Bfl-1 A1 inh – inhibitors of the anti-apoptotic protein A1, read as caspase activation | 330,000 compounds, 0.066% hits | caspase activation, % (no concentration beside the values) | AID 2462 | MEF A1-2A-BIM cells, Caspase-Glo 3/7 luminescence, 3 h; percent of clofoctol response, vehicle zero;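 active = over half of replicate activation scores above 10%, or exactly half above 10 with the replicate mean above 10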;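 also: wells of about 30 µL received 50 nL stock; many hits fall short of the cut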
Calb FLC – affects C. albicans growth with fluconazole. 300,000 compounds, 0.57% hits. C. albicans CaCi-2 (fluconazole-resistant clinical isolate) + fluconazole, Alamar Blue growth, 48 h. AID 1979. growth inhibition, % (concentration not given with the values);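 active = most replicates above 75%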;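 also: all wells also contain fluconazole at 8 µg/ml as a sub-toxic cotreatment; 0% = median of DMSO wells and 100% = median of geldanamycin control wells; wells of about 8 µL received 7.5 nL stock; the first replicate is given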
Beta cell apopt – blocks beta cell apoptosis. INS-1E cytokine-induced death, ATP luminescence, 48 h; percent of positive-control rescue, neutral wells zero. protection from apoptosis, % (no concentration beside the values). 300,000 compounds, 0.8% hits. AID 435005;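 active = all replicates at 75% or more, or half of them and the mean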;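 also: 0% = cytokine-treated negative control wells and 100% = positive control rescue; higher means more ATP so stronger rescue from cytokine killing; wells of about 40 µL received 100 nL stock; the first replicate is given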
T cruzi inh – blocks replication of Trypanosoma cruzi. 300,000 compounds, 1.4% hits. inhibition, % (test concentration not listed). T. cruzi beta-gal in NIH3T3, luminescence, 90 h. AID 1885;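 active = mean inhibition across valid replicates above about 55%, limit read from the data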;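 also: signal also drops with host cell toxicity which is not excluded here; 0% = plate median of DMSO wells and 100% = zero luminescence signal; higher percent means less beta-gal luminescence so fewer parasites; stock transfer was 50 nL into about 50 µL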
rRNA inh HTS OD600 – also measured in rRNA inh HTS; calls as there; OD600 change, %; measured here: OD600 growth;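 optical density of the mix in the first replicate; 0 = DMSO median and -100 = no signal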
rRNA inh HTS RFP – also measured in rRNA inh HTS; calls as there; RFP signal change, %; measured here: RFP humanized mutant strains;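 first replicate; 0 = DMSO median and -100 = no signal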
* = called active by the depositor; . = no result given. These rows are one share of the data; rates above refer to the full screens.

SMILES | ALR inh | LANA-H2A inh | Beta2AR agonist | rRNA inh HTS | rRNA inh HTS OD600 | rRNA inh HTS RFP | Bfl-1 A1 inh | Calb FLC | Beta cell apopt | T cruzi inh
COC(=O)c1ccc(NC(=O)C2C3C=CC(O3)C2C(=O)O)cc1 (configuration not stated) | 3 | -1.6 | -9 | . | . | . | 0.6 | -4 | -2 | -17
Cc1cc(NC(=O)c2ccccc2)n(-c2ccccc2)n1 | 0 | 0.4 | -2 | . | . | . | 0.4 | -14 | -5 | -3
Nc1nc(NC(=O)c2cccs2)nn1-c1ccccc1 | 1 | 0.0 | 5 | . | . | . | -3.1 | 5 | -2 | 4
C=CCOC(=O)C1=C[C@H](c2csc3ccccc23)C[C@H](OCCCCO)O1 | 3 | -0.1 | -1 | -1 | 0 | 2.2 | 0.5 | 24 | -8 | -5
O=C(O)CCNC(=O)/C(=C/C=C/c1ccccc1)NC(=O)c1ccccc1 | -4 | 18 | -1 | 9 | 4 | -0.9 | -0.1 | 7 | -7 | -9
Cc1cc(N)n(-c2ccccn2)n1 | 1 | -4.9 | 1 | 1 | 2 | 1.7 | -2.9 | -24 | -1 | -6
Cc1cccc(C(=O)NCc2nnc(SCC(=O)NC3CCCC3)n2C)c1 | 2 | 1.5 | 9 | 4 | 4 | -3.4 | 0.4 | -10 | -10 | -9
Cc1ccc(S(=O)(=O)N2C(=O)CCC2C(=O)N2CCCCC2)cc1 (configuration not stated) | 0 | -6.2 | 6 | 5 | 6 | -0.2 | 0.0 | 1 | 1 | 0
CCCC(=O)Nc1ccc(C#Cc2ccccc2)cc1 | -2 | -0.8 | -2 | . | . | . | 0.0 | -1 | 3 | 17
CCOC(=O)Cc1cc(=O)[nH]c(/N=C(\N)Nc2ccc(C)c(C)c2)n1 | -12 | 0.5 | 5 | 12 | 15 | 0.5 | -0.7 | 6 | -1 | -29
CCCSc1nc2cc(C)c(C)cc2n1CC(C)O (configuration not stated) | -2 | -5.0 | -2 | 1 | -4 | 0.4 | -0.7 | 4 | -4 | 6
CCn1c(SCC(=O)Nc2cccc(C)c2)nc2nc3c(cc2c1=O)COC(C)(C)C3 | 13 | 3.5 | -3 | 8 | 4 | -1.0 | 0.8 | -3 | -4 | -4
COc1ccc(NS(=O)(=O)c2ccc(N3CCOCC3)c(NC(=O)c3ccccc3Cl)c2)cc1 | 4 | -0.9 | 3 | -9 | -8 | 0.4 | 0.7 | -1 | 6 | -10
C/C(=N\Nc1cccc2cccnc12)c1ccccc1O | 2 | -1.0 | -4 | 12 | 9 | 11 | 0.5 | 3 | 5 | -37
O=C(/C=C/c1ccc(O)cc1)c1c(O)cc(O)cc1O | 98* | 4.3 | 1 | -14 | -10 | -9.2 | -0.9 | 7 | . | -2
CCNC(=S)Nc1sc2c(c1C#N)CCC(C)C2 (configuration not stated) | 3 | 1.3 | 8 | -5 | 1 | 2.9 | 0.4 | 16 | 0 | -8
CCC1(C(=O)OC)NC(c2cccc(F)c2)C2C(=O)N(C)C(=O)C21 (configuration not stated) | -1 | 3.8 | 3 | . | . | . | 0.3 | 5 | . | -6
CCCn1nnc(NC(=O)c2sc3ccccc3c2Cl)n1 | -1 | 1.6 | -2 | . | . | . | -1.2 | -7 | -3 | -14
COCCNC(=O)CN(C(=O)Cn1nnc2ccccc21)c1ccc(C)c(F)c1 | -12 | 2.2 | -17 | . | . | . | 0.6 | 18 | 2 | -2
O=C(Nc1cccc(-c2nn[nH]n2)c1)c1ccc(Cl)s1 | 7 | 4.1 | -3 | -4 | -2 | -0.8 | -2.9 | -1 | 2 | -6

Gathered by group: those above containing fluorine (two)
SMILES | ALR inh | LANA-H2A inh | Beta2AR agonist | rRNA inh HTS | rRNA inh HTS OD600 | rRNA inh HTS RFP | Bfl-1 A1 inh | Calb FLC | Beta cell apopt | T cruzi inh
CCC1(C(=O)OC)NC(c2cccc(F)c2)C2C(=O)N(C)C(=O)C21 (configuration not stated) | -1 | 3.8 | 3 | . | . | . | 0.3 | 5 | . | -6
COCCNC(=O)CN(C(=O)Cn1nnc2ccccc21)c1ccc(C)c(F)c1 | -12 | 2.2 | -17 | . | . | . | 0.6 | 18 | 2 | -2

Other compounds follow.
SMILES | ALR inh | LANA-H2A inh | Beta2AR agonist | rRNA inh HTS | rRNA inh HTS OD600 | rRNA inh HTS RFP | Bfl-1 A1 inh | Calb FLC | Beta cell apopt | T cruzi inh
O=C(C1CCN(c2ccc(N3CCOCC3)nn2)CC1)N1CCN(c2ccc(F)cc2)CC1 | 55 | -2.7 | 11 | . | . | . | 0.5 | 2 | -3 | 15
CCCCn1c(N)c(N(CCOC)C(=O)COC(=O)COc2cccc(C(C)=O)c2)c(=O)[nH]c1=O | . | -8.8 | -6 | 10 | 2 | -1.3 | -0.7 | -3 | 7 | -1
Cc1ccc(C(=O)Nc2ccc(N3CCOCC3)c3nonc23)cc1[N+](=O)[O-] | . | 6.7 | 1 | 5 | 6 | -2.8 | 1.1 | 32 | 0 | 12
CCOC(=O)c1c(C)oc2c1c(C=NC1CCS(=O)(=O)C1)c(O)c1ccccc12 (configuration not stated) | -32 | 3.3 | 1 | . | . | . | -0.1 | 8 | 6 | 10
COc1ccccc1/C=C\C(=O)NCC(=O)N/N=C(/C)c1cccc([N+](=O)[O-])c1 | -17 | -4.7 | -6 | -5 | -3 | 0.2 | -0.9 | 11 | 1 | 5
Cc1cc(C(=O)OCC(=O)Nc2c(F)cccc2F)c(C)n1-c1ccccc1 | -2 | 4.7 | 11 | -42 | -62 | -6.0 | -0.5 | -14 | -1 | -1
CN(C)S(=O)(=O)Nc1cccc(NC(=O)CC23CC4CC(CC(C4)C2)C3)c1 | -38 | 5.5 | -9 | -17 | -43 | 1.2 | -1.1 | 9 | 1 | 13
CCc1ccccc1OCc1nnc(N)s1 | -4 | 2.4 | 8 | . | . | . | -0.5 | -1 | . | -5
COc1ccccc1-n1c(SCC(=O)N(C)C2CCS(=O)(=O)C2)nc2ccccc2c1=O (configuration not stated) | -1 | 1.4 | -1 | . | . | . | 0.5 | 2 | 2 | 14
Cc1ccc(CC(=O)NCC(C)C)cc1 | -3 | -2.9 | 0 | . | . | . | -0.2 | 16 | -2 | -2
O=C(NCCCn1ccnc1)/C(=C/c1cccnc1)NC(=O)c1ccco1 | 6 | -0.3 | -7 | 1 | 1 | 0.3 | -0.1 | 7 | -11 | 0
CC(C)c1ccccc1OCCCCCNCCO | -5 | -6.3 | -3 | 6 | -3 | 4.6 | 0.0 | -5 | -7 | 38
O=C(NCc1ccco1)c1ccc2c(=O)n(-c3ccccc3)c(=S)[nH]c2c1 | . | -0.6 | 2 | . | . | . | 0.0 | -2 | -1 | -11
Cc1cc(C(=O)NCc2cc(F)cc3c2OCOC3)nn1C | 0 | -1.3 | 1 | 11 | 7 | 1.5 | -1.8 | -16 | . | -7
CC1CCc2nc3ccc(S(=O)(=O)N4CCC(C(=O)O)CC4)cc3c(C(=O)O)c2C1 (configuration not stated) | -13 | 2.4 | -1 | 13 | 8 | 12 | 1.3 | -4 | -2 | -9
O=C1C2C3C=CC(CC3)C2C(=O)N1/N=C/c1c[nH]c2ccccc12 (configuration not stated) | -4 | 1.4 | -3 | -1 | 2 | 0.6 | 1.0 | -2 | . | 2
COCCNC(=O)CCc1c(C)nc2c(c(C)nn2-c2ccc(C)cc2)c1C | -3 | 4.0 | -1 | 8 | 11 | 0.1 | 0.5 | -4 | -4 | -2
CCOC(=O)c1ccc(NC(=O)CN2C(=O)C(C)SC(C)C2=O)cc1 (configuration not stated) | -12 | 3.7 | 2 | -11 | -16 | -2.3 | 0.1 | -23 | 1 | -10
Cc1ccc(C(=O)NC(=S)NNC(=O)c2ccccc2[N+](=O)[O-])cc1 | 99* | -1.9 | 1 | . | . | . | 0.8 | 114* | 4 | .
CC(C)C(=O)N1CCN(c2nc(-c3ccccc3)c3c(c2C#N)CCCC3)CC1 | -32 | -2.1 | -1 | -17 | -22 | -3.3 | -0.3 | 11 | 18 | 53
COc1ccc(S(=O)(=O)NCc2ccccc2Cl)cc1OC | -6 | -3.0 | -9 | . | . | . | -1.2 | 7 | -4 | 7
Cc1cc(C)c[n+](C(C)C(=O)c2ccc(Cl)cc2)c1 (configuration not stated) | -4 | 2.0 | -5 | 16 | 15 | -6.8 | -0.8 | -2 | -10 | -14
Cc1cc(NS(=O)(=O)c2ccc(NC(=O)C(C)Oc3ccc(C(C)C)cc3)cc2)no1 (configuration not stated) | . | -0.1 | 0 | -12 | -10 | 1.4 | 0.1 | 5 | -1 | -24
CCOc1ccc(OCC(=O)OCn2c(SC)nnc(C)c2=O)cc1 | . | -0.3 | 3 | 1 | 7 | -2.3 | -0.4 | -9 | 3 | -3
Cc1cccc(CN2C(=O)CSc3ccc(C(=O)NC4CC4)cc32)c1 | -6 | 2.0 | -20 | -4 | -9 | -0.6 | 1.0 | 0 | 4 | 10
COc1ccc(NC(=O)CC(C)NCCCN2CCCC2=O)cc1 (configuration not stated) | . | 5.6 | -2 | -16 | -19 | 4.1 | 0.2 | -7 | -4 | -14
CCOc1ccc(C(=O)N2CCN(c3cnn(-c4ccccc4)c(=O)c3Cl)CC2)cc1 | . | 5.2 | -2 | 14 | 10 | -0.1 | -0.8 | -5 | -9 | 4
CN1/C(=C\C=Nc2ccc3ccccc3c2)C(C)(C)c2ccccc21 | . | -10 | -43 | . | . | . | -0.2 | . | 4 | .
COc1ccccc1CCCNC(=O)C1CCC(=O)N(Cc2ccccc2F)C1 (configuration not stated) | . | -0.9 | 3 | -3 | -2 | 0.6 | 8.6* | -6 | -7 | -4
Cc1cc(NC(=O)CSc2n[nH]c(-c3ccccc3Br)n2)no1 | 0 | -5.4 | 2 | -11 | -4 | 6.2 | -0.3 | . | -1 | .
COc1ccc(Cl)cc1Nc1cc(C)nc2nc(C)nn12 | -3 | 1.1 | -17 | 0 | -6 | -0.6 | -0.3 | 6 | 2 | -9
O=C(/C=C\c1ccco1)Nc1ccc(N2CCN(C(=O)c3ccccc3)CC2)cc1 | 9 | 0.6 | -10 | . | . | . | 1.3 | -11 | 1 | -56
O=C(N/C(=C/c1ccc(F)cc1)C(=O)N1CCCC1)c1ccccc1 | . | 4.6 | 0 | 4 | -1 | -1.5 | 0.1 | 23 | 2 | -10
O=C(COc1cccc2ccccc12)N/N=C/c1ccc(Sc2nc3ccccc3s2)o1 | 1 | 2.5 | 3 | . | . | . | 0.9 | 21 | . | 15
CS(=O)(=O)/C(C#N)=C/c1cccn1S(=O)(=O)c1ccccc1 | . | 12 | 2 | 5 | 17 | -0.2 | 0.6 | 2 | . | -3
CC1CCC(C(C)C)C(OCC(O)CNC(C)C)C1 (configuration not stated) | . | 2.3 | -2 | 2 | 8 | -7.3 | 0.6 | 7 | 15 | 3
CC(=O)Oc1ccc2c(c1)O/C(=C\c1ccncc1)C2=O | -1 | 2.9 | 18 | . | . | . | 1.3 | 21 | 0 | -5
N#Cc1c(-c2cccc(Cl)c2)[nH]c(=S)[nH]c1=O | 80* | 4.1 | -5 | 6 | 8 | 1.3 | 1.7 | 6 | 1 | 5

Bioassay records (PubChem BioAssay)
